Bioassay records as filed in PubChem BioAssay.
VCAM-1 down: inhibitors of TNFa-induced VCAM-1 surface display, cell-based, plate reader, pooled HUVEC, TNFa stimulus (AID 454); HUVEC TNFa-induced VCAM-1 surface immunofluorescence, plate reader; numbers were filed only for top-ranked candidate wells; inhibition, % at 5 µM; actives 0.2% (n = 10,000);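 active = compound among top-ranked inhibitors of TNF-induced VCAM-1 adhesion protein staining, with the hit upheld by image or statistical review; inactive = the rest, including hits rejected on review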;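 note: 0% = TNFa with vehicle and 100% = cells without TNFa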
FPR ligand: ligands of human FPR, also counter-screen for FPRL1 ligands; actives 0.74% (n = 24,000); AID 440; inhibition, %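 (tested at 6.7 µM)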; FPR-expressing cells, fluorescent ligand binding, flow cytometry;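 note: 0% = buffer wells and 100% = receptor blocker peptide wells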
Target sequence (P21462 whole entry, looked up): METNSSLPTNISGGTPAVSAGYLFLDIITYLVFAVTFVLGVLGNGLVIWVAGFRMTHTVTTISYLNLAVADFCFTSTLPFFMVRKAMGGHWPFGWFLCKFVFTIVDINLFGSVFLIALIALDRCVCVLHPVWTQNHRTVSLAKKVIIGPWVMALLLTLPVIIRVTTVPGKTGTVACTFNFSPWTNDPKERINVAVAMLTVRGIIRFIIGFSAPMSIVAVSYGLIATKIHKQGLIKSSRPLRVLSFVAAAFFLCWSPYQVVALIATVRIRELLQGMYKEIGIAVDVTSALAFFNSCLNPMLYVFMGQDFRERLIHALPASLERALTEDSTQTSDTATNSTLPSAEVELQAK
FPRL1 ligand: binds the human formylpeptide receptor-like-1 FPRL1 | inhibition, %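 (tested at 6.7 µM)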 | actives 0.3% (n = 24,000) | AID 441 | FPRL1-expressing cells, fluorescent ligand binding inhibition, flow cytometry;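 note: 0% = buffer alone and 100% = receptor blocker peptide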
Target sequence (P25090 whole entry, looked up): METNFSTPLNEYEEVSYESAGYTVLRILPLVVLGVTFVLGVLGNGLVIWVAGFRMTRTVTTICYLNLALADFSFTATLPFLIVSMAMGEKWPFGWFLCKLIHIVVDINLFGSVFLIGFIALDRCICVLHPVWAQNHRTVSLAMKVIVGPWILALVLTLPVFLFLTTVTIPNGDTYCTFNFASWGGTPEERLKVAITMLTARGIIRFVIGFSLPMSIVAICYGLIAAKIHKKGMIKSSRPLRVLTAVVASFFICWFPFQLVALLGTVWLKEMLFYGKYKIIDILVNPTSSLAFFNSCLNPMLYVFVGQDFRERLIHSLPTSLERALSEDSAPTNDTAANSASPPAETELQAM
VCAM-1 down imaging: inhibitors of TNFa-induced VCAM-1 surface display, imaging, high-content imaging, pooled HUVEC, TNFa stimulus (AID 456); actives 0.2% (n = 10,000); HUVEC TNFa-induced VCAM-1 surface expression, immunofluorescence imaging; numbers were filed only for top-ranked candidate wells; one-dose inhibition, % at 5 µM; IC50 in µM for titrated hits;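 active = top tenth filtered wells with inhibition above zero that passed visual or statistical confirmation; inactive = the rest, including hits rejected on review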;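 note: 0% = stimulated vehicle wells and 100% = unstimulated cells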
VCAM-1 augmentation: boosters of cytokine-driven VCAM-1 levels – imaging, high-content imaging, pooled HUVEC, TNFa stimulus (AID 457) | actives 0.2% (n = 10,000) | Pooled HUVEC, TNFa-induced VCAM-1 immunofluorescence imaging; hits of this screen are not shown here | calls only;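 active = a top-ranked rise in VCAM-1 staining upheld on image or statistical review; inactive = the rest, including candidates rejected on review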;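 note: compounds tested at 5 µM in the well; cells exposed to compound for 24 hours before fixing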
Starred values were filed as active, the others as inactive; i = inactive; . = no result given.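 Rule for the calls, unless noted: active = mean above 30%; inconclusive = self-fluorescent; inactive = the rest.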

Sequence of screens – VCAM-1 down	FPR ligand	FPRL1 ligand	VCAM-1 down imaging	VCAM-1 augmentation
1: COCCCNC(=O)C1CC(=O)N(C2CCCC2)C1 (centres undefined)
 : .	2	4	.	.
2: O=c1c2c3c(sc2nc2sc(C4CC4)nn12)CCCC3
 : i	6	-5	i	i
3: CCc1ccc(Nc2cc(C)nc3nc(C)nn23)cc1
 : .	4	0	.	.
4: Oc1c(C(c2ccccc2)N2CCc3ccccc3C2)sc2ncnn12 (centres undefined)
 : i	-8	-1	i	i
5: Cc1ccc2c(c1)N(CC(=O)NC1CCCCC1C)C(=O)CO2 (centres undefined)
 : .	-1	-1	.	.
6: COCCNC(=O)C1CC(=O)N(CCc2ccccc2)C1 (centres undefined)
 : .	0	2	.	.
7: O=C(C1CCCN(S(=O)(=O)c2cccc3nonc23)C1)N1CCC(Cc2ccccc2)CC1 (centres undefined)
 : i	2	-5	i	i
8: CC(=O)N1c2c(cc(Br)cc2S(=O)(=O)NCC2COc3ccccc3O2)CC1C (centres undefined)
 : i	1	-4	i	i
9: Cc1nc2ncnn2c(C)c1CCC(=O)NCCC1=CCCCC1
 : .	-7	-1	.	.
10: COc1cccc(-c2noc(C3CCCN(C(=O)Cc4ccccc4)C3)n2)c1 (centres undefined)
 : i	3	12	i	i

In a second layout: results already given
[4] Oc1c(C(c2ccccc2)N2CCc3ccccc3C2)sc2ncnn12 (centres undefined)
[9] Cc1nc2ncnn2c(C)c1CCC(=O)NCCC1=CCCCC1
[6] COCCNC(=O)C1CC(=O)N(CCc2ccccc2)C1 (centres undefined)
[8] CC(=O)N1c2c(cc(Br)cc2S(=O)(=O)NCC2COc3ccccc3O2)CC1C (centres undefined)
[5] Cc1ccc2c(c1)N(CC(=O)NC1CCCCC1C)C(=O)CO2 (centres undefined)
[10] COc1cccc(-c2noc(C3CCCN(C(=O)Cc4ccccc4)C3)n2)c1 (centres undefined)
screen / no.	4	9	6	8	5	10
VCAM-1 down	i	.	.	i	.	i
FPR ligand	-8	-7	0	1	-1	3
FPRL1 ligand	-1	-1	2	-4	-1	12
VCAM-1 down imaging	i	.	.	i	.	i
VCAM-1 augmentation	i	.	.	i	.	i

Additional structures
Sequence of screens – VCAM-1 down	FPR ligand	FPRL1 ligand	VCAM-1 down imaging	VCAM-1 augmentation
11: O=C(NCC1COc2ccccc2O1)c1ccc(NC(=O)C2CCCO2)cc1 (centres undefined)
 : .	2	-3	.	.
12: CSc1nc(=NC(C)=O)ss1
 : i	-4	1	i	i
13: CC(C)=CC(=O)Nc1ccc(Br)cc1
 : i	-5	3	i	i
14: C=CCN(C(=O)CNS(=O)(=O)c1ccccc1)C(C(=O)NCCOC)c1ccncc1 (centres undefined)
 : i	2	4	i	i
15: Cc1cccc(C2CC(c3ccccc3)Nc3nc(N)nn32)c1 (centres undefined)
 : i	4	5	i	i
16: Cc1c(N(C)C)nc2ccccc2c1N
 : i	5	4	i	i
17: Cc1oc(-c2cccc(Cl)c2)nc1CN1CCCC(C(=O)NCc2ccco2)C1 (centres undefined)
 : .	0	-2	.	.
18: Cc1nc2ccc(S(=O)(=O)NCC(=O)N3CCN(c4ccccn4)CC3)cc2s1
 : .	1	-2	.	.
19: O=C(C1CC1)N1CCN=C1SCc1ccc(Cl)cc1
 : .	0	4	.	.
20: O=C(O)CCNc1nc(-c2ccccc2)nc2ccccc12
 : i	3	0	i	i

Later entries.
Sequence of screens – VCAM-1 down	FPR ligand	FPRL1 ligand	VCAM-1 down imaging	VCAM-1 augmentation
21: CCOC(=O)C(NC(=O)OC(C)C)(Nc1nccs1)C(F)(F)F (centres undefined)
 : i	2	-3	i	i
22: CCOC(=O)CSC1=Nc2ccccc2C2=NC(CC(=O)NCc3ccc(OC)cc3)C(=O)N12 (centres undefined)
 : i	0	1	i	i
23: C=CCSc1nnc2c(n1)OC(c1cccnc1)N(C(C)=O)c1ccccc1-2 (centres undefined)
 : .	-3	1	.	.
24: CC(=O)c1ccc(NC(=O)Cn2nc(C)cc2C)cc1
 : .	1	-2	.	.
25: CCC1C(=O)N=C(SCC(=O)Nc2cccc3ccccc23)NC1=O (centres undefined)
 : i	-2	6	i	i
26: C1CCc2nnc(-c3nnc4n3CCCCC4)n2CC1
 : i	-1	0	i	i
27: CC1=C(C#N)C(c2ccc3ncccc3c2)C(C#N)=C(C)N1
 : i	29	25	i	i
28: Cc1ccc(CC(=O)N2CCC(c3nc4c(nnn4Cc4ccccc4)c(=O)[nH]3)CC2)cc1
 : .	2	-2	.	.
29: COc1ccc(OC)c(-c2cc(C(=O)Nc3c(C)nn(Cc4ccccc4Cl)c3C)no2)c1
 : .	-1	0	.	.
30: CCCn1cc(S(=O)(=O)CC(=O)Nc2ccc(OC)cc2OC)c2ccccc21
 : .	4	7	.	.

Next section:
Sequence of screens – VCAM-1 down	FPR ligand	FPRL1 ligand	VCAM-1 down imaging	VCAM-1 augmentation
31: O=C(c1ccco1)N1CCN(c2ncccn2)CC1
 : .	-4	1	.	.
32: COCCNC(=O)c1ccc2c(c1)nc(C)n2-c1cccc(F)c1
 : i	5	7	i	i
33: Cn1cc(CC(=O)NCCCN2CCCC2=O)c2ccccc21
 : .	-1	-4	.	.
34: CCOc1ccc(C2/C(=C(\O)c3ccc(OC)c(OC)c3)C(=O)C(=O)N2c2cc(C)on2)cc1OC (centres undefined)
 : .	-11	-5	.	.
35: CCCS(=O)(=O)N1CCCC(C(=O)NCc2cccnc2)C1 (centres undefined)
 : .	-2	3	.	.
36: C=CCNC(=O)c1cc(-c2ccc(Br)cc2)on1
 : .	-1	3	.	.
37: CCOC(=O)c1c(NC(=O)c2ccc(S(=O)(=O)N3CCOCC3)cc2)sc2c1CCN(C)C2
 : .	2	-8	.	.
38: CCOc1ccc(CCNC(=O)CN2CCN(Cc3ccc(F)cc3)C2=O)cc1OCC
 : .	1	6	.	.
39: COc1ccc(NC(=O)Nc2ccc(C)cc2OC(F)F)cc1OC
 : i	18	4	i	i
40: CCN(c1cccc(C)c1)S(=O)(=O)c1ccc2[nH]c(=O)c(=O)[nH]c2c1
 : i	1	0	i	i

Excerpt, compounds 31 to 34
Sequence of screens – VCAM-1 down	FPR ligand	FPRL1 ligand	VCAM-1 down imaging	VCAM-1 augmentation
31: O=C(c1ccco1)N1CCN(c2ncccn2)CC1
 : .	-4	1	.	.
32: COCCNC(=O)c1ccc2c(c1)nc(C)n2-c1cccc(F)c1
 : i	5	7	i	i
33: Cn1cc(CC(=O)NCCCN2CCCC2=O)c2ccccc21
 : .	-1	-4	.	.
34: CCOc1ccc(C2/C(=C(\O)c3ccc(OC)c(OC)c3)C(=O)C(=O)N2c2cc(C)on2)cc1OC (centres undefined)
 : .	-11	-5	.	.

Continuation:
Sequence of screens – VCAM-1 down	FPR ligand	FPRL1 ligand	VCAM-1 down imaging	VCAM-1 augmentation
41: COc1ccccc1NC(=O)CN1CCN(CC(=O)Nc2ccc3c(c2)OCCO3)CC1
 : .	-2	8	.	.
42: Cc1ccc(-c2nnn(CC(=O)N(CC(=O)NC3CCCCC3)c3cnc4ccccc4c3)n2)o1
 : i	1	-3	i	i
43: CCc1c(C#N)c(SCc2c(C)noc2C)nc2c1C(=O)CC(C)(C)C2
 : .	0	2	.	.
44: CCOC(=O)c1ccccc1NC(=O)Cn1cnc2c(cnn2-c2ccc(F)cc2)c1=O
 : .	-14	-9	.	.
45: CC1CCN(C(=O)CSc2nnc(-c3cccnc3)n2C2CCCCC2)CC1
 : i	-15	-21	i	i
46: CCCCCC1CCC(C(=O)O)CC1 (centres undefined)
 : .	-3	-2	.	.
47: Cc1ccc(-n2ncc3c(=O)[nH]c(SCC(=O)N4CCOCC4)nc32)cc1
 : .	-9	-5	.	.
48: Cc1ccc(NC2c3ncccc3C(=O)N2C2CCCCC2)cc1 (centres undefined)
 : .	-3	0	.	.
49: Cc1nc(Nc2nc(=O)c3ccccc3n2C)nc2c(C)cccc12
 : i	-5	-8	i	i
50: COc1ccc(CCNC(=O)Cn2cnc3c2c(=O)n(C)c(=O)n3C)cc1OC
 : .	-10	-7	.	.

Along the list, quoted from above:
FPRL1 ligand for entries 41 to 50: 8, -3, 2, -9, -21, -2, -5, 0, -8, -7

(next part)
Sequence of screens – VCAM-1 down	FPR ligand	FPRL1 ligand	VCAM-1 down imaging	VCAM-1 augmentation
51: O=C(C1CCC1)N1CCc2cc(S(=O)(=O)NCc3ccco3)ccc21
 : .	-3	-3	.	.
52: CCCCCC#CCC#CCC#CCC#CCCCC(=O)O
 : i	-1	-6	i	i
53: CC1CCCCN1C(=O)CSc1nc2cc3c(cc2c(=O)n1Cc1ccc2c(c1)OCO2)OCO3 (centres undefined)
 : .	1	0	.	.
54: CCn1c(=O)c(C(=O)Nc2cccnc2)c(O)c2ccccc21
 : i	0	-1	i	i
55: CC1CCCCN1S(=O)(=O)c1ccc(NC(=O)c2cccs2)cc1 (centres undefined)
 : i	1	4	i	i
56: CCn1c(=O)c2cc(C(=O)NCCN3CCOCC3)sc2c2ccccc21
 : .	3	1	.	.
57: COc1ccc(S(=O)(=O)NCC2CCC(C(=O)N3CCC4(CC3)OCCO4)CC2)cc1 (centres undefined)
 : .	-10	-11	.	.
58: CCOC(=O)c1c(N)sn(-c2ccccc2)c1=S
 : i	4	-2	i	i
59: COC(=O)c1ccccc1NC(=O)C12CCC(C)(C(=O)O1)C2(C)C (centres undefined)
 : i	-4	-5	i	i
60: Cc1cc(C(=O)NC2CCCC2)on1
 : .	-1	-6	.	.
61: Cc1ccccc1C(=O)c1cccn1CC(=O)NCc1ccco1
 : .	2	-10	.	.
62: COc1ccc(CN2C(=O)CCC2(C)C(=O)NC2CCCCC2)c(OC)c1 (centres undefined)
 : .	4	-2	.	.
63: O=C(CCCn1c(=O)c2sccc2n(Cc2cc(=O)n3ccccc3n2)c1=O)NCc1ccco1
 : i	10	9	i	i

Complete entries as entered above. Values in the order: VCAM-1 down, FPR ligand, FPRL1 ligand, VCAM-1 down imaging, VCAM-1 augmentation
COc1ccc(S(=O)(=O)NCC2CCC(C(=O)N3CCC4(CC3)OCCO4)CC2)cc1 (centres undefined) across the screens: ., -10, -11, ., .
CCCCCC#CCC#CCC#CCC#CCCCC(=O)O across the screens: i, -1, -6, i, i
CC1CCCCN1C(=O)CSc1nc2cc3c(cc2c(=O)n1Cc1ccc2c(c1)OCO2)OCO3 (centres undefined) across the screens: ., 1, 0, ., .
CCn1c(=O)c(C(=O)Nc2cccnc2)c(O)c2ccccc21 across the screens: i, 0, -1, i, i
CCn1c(=O)c2cc(C(=O)NCCN3CCOCC3)sc2c2ccccc21 across the screens: ., 3, 1, ., .

An excerpt. The share of hits here may be higher or lower than overall.
